Bioassay records as filed in PubChem BioAssay.
LANA-nucl inh: inhibitors of KSHV LANA-nucleosome binding, primary screen, biochemical, fluorescence polarization, FITC-LANA1-23, chicken nucleosomes; FITC-LANA1-23 / chicken nucleosome fluorescence polarization; stronger effect = lower value; z-score (concentration not given with the values); hit rate 0.3% among 51,000; AID 720717, 2013;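 active means both repeat wells score below -2 in polarization z-score versus plate sample wells, excluding overly bright wells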;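 further: 100 nL library stock added to about 30 µL; numbers are from one replicate; some results filed as inactive read as strong as hits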
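test system = FITC-LANA peptide and chicken nucleosomes | amount = 240 nM purified chicken nucleosomes (480 nM peptide binding sites), final | reagent = 50 nM FITC-LANA1-23 probe | medium = TEN-BT buffer, pH 7.5 | doses = single compound addition by pin transfer, 100 nL per well | timing = 10–45 min, room temperature | detection = fluorescence polarization | repeats = duplicate plates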
Ab BasE inh: BasE siderophore enzyme inhibitors, primary screen, biochemical, Acinetobacter baumannii ATCC 17978, fluorescence polarization; inhibition, % (concentration not given with the values); hit rate 0.1% among 84,000; purified BasE, fluorescence polarization binding displacement; AID 485350, 2010;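 active means both replicates above 25% with normal brightness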;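 further: 0% = negative plate control signal and 100% = positive plate control signal; stock transfer was 100 nL into about 30 µL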
An asterisk follows results filed as active; . = no result given; & = joins results of further samples. An excerpt. The share of hits here may be higher or lower than overall.

SMILES	LANA-nucl inh	Ab BasE inh
Cc1cc(C)cc(NC(=O)[C@@H](NC(=O)c2ccco2)C(C)C)c1	.	1.6
Cc1cccc(C(=O)NCC(c2ccccc2)N(C)C)c1 (stereo unspecified)	.	0.5
N#CC1(NC(=O)COC(=O)CSc2nc3ccccc3o2)CCCCC1	.	0.7
COCCN=c1scc(-c2cccs2)n1/N=C/c1ccc(N2CCOCC2)cc1	.	1.5
COC(=O)c1c(NC(=O)c2ccoc2C)sc2c1CCCCC2	-0.71	1.1
CCN1CCCC1CNC(=O)CCCN1C(=O)CCn2nc(C)cc21 (stereo unspecified)	.	0.8
O=C(NCCc1ccccn1)C1CC(=O)N(Cc2ccccc2Cl)C1 (stereo unspecified)	.	0.7
Cc1ccc(S(=O)(=O)CCc2nc3ccccc3n2CCC#N)cc1	1.8	-1.0
CCOC(=O)c1ccsc1NC(=O)CSc1ccccc1	0.48	0.7
CCC(CC)C(=O)NCc1ccccc1	0.29	0.3
CCCCC[C@H](O)/C=C/[C@@H]1[C@@H](C/C=C\CCCC(=O)O)[C@@H](O)C[C@H]1O	-0.57&0.089	-2.8
CCc1ccccc1Nc1nc(-c2c(C)nc3sccn23)cs1	1	-2.5
N#CC1=C2C=CC=CN2/C(=C\c2cn(-c3ccccc3)nc2-c2cccs2)C1=O	.	3.2
COc1cc2nc(C)[nH]c2cc1OC	0.67	-0.1
Cc1cc(C)n2nc(C(=O)N(C)CC(=O)Nc3ccc(Cl)c(C(F)(F)F)c3)nc2n1	.	-2.2
COc1ccc(N2CCN(c3cc(O)c4ccccc4c3O)CC2)cc1	.	-2.0
Cc1cccc(OCc2nnc(SC(C)C(=O)O)n2Cc2ccccc2)c1 (stereo unspecified)	-0.48	2.0
O=C(OCc1nnc(-c2ccccc2Br)o1)c1ccc2[nH]c3c(c2c1)CCCC3	.	-0.2
COc1nc(C)c(/C=C/C(=O)N(C(=O)NC2CCCCC2)C2CCCCC2)c(OC)n1	0.33	-2.6
Cc1ccc2[nH]c3c(=O)n(CC(=O)Nc4cccnc4)ncc3c2c1	.	-0.5
N#Cc1c(N)ncc2c1CCCC2	0.012	4.0
CC1=C(C(=O)Nc2ccccc2)C(c2ccco2)C(C#N)=C(SCC(=O)Nc2ccccc2)N1 (stereo unspecified)	0.4	-0.1
c1ccc(-c2nonc2NCNc2nonc2-c2ccccc2)cc1	0.47	1.5
Cc1c(C#N)c2nc3ccccc3n2c(=O)/c1=C\Nn1cnnc1	.	7.2
Cc1cnc(N)c(C)n1	-0.47	-1.5
Clc1cc2c(c3ncccc13)OCN(CC1CCCO1)C2 (stereo unspecified)	.	-5.0
O=C(Cc1cccs1)N1CCN(c2ccccn2)CC1	1	-0.3
Cc1nnc(SCc2ccc(Cl)cc2Cl)o1	-2.1	-0.1
COc1ccccc1C1C=C(c2cccnc2)Nc2nc3ccccc3n21 (stereo unspecified)	-4.8*	29
O=C1CCC(=O)N1CNc1cc(C(F)(F)F)cc(C(F)(F)F)c1	.	2.2
N#CCCSc1nccn1Cc1ccccc1	-0.54	0.1
CC(Sc1ncc(C(F)(F)F)cc1Cl)c1ccn[nH]1 (stereo unspecified)	0.88	.
COc1ccc(C(=O)/C(C#N)=C/N2CCc3ccccc3C2)cc1	0.14	.
CCN(CCS(=O)(=O)c1ccc(Cl)cc1)Cc1nc2ccccc2c(=O)[nH]1	.	0.1
CC(C)C(C(=O)NCc1ccccc1)N1Cc2ccccc2C1=O (stereo unspecified)	2.1	-3.8
Cc1ccc(NC2=NC(C)(C)N=C(N)N2)cc1	.	1.6

6 compounds picked at random from the list so far, as already listed:
SMILES	LANA-nucl inh	Ab BasE inh
CC(C)C(C(=O)NCc1ccccc1)N1Cc2ccccc2C1=O (stereo unspecified)	2.1	-3.8
N#CCCSc1nccn1Cc1ccccc1	-0.54	0.1
COc1ccccc1C1C=C(c2cccnc2)Nc2nc3ccccc3n21 (stereo unspecified)	-4.8*	29
O=C(Cc1cccs1)N1CCN(c2ccccn2)CC1	1	-0.3
CC(Sc1ncc(C(F)(F)F)cc1Cl)c1ccn[nH]1 (stereo unspecified)	0.88	.
Cc1ccc(NC2=NC(C)(C)N=C(N)N2)cc1	.	1.6

The results go on.
SMILES	LANA-nucl inh	Ab BasE inh
Cc1cccc(C(=O)NC(C)C(=O)Nc2ccnn2C2CCCC2)c1 (stereo unspecified)	.	1.3
CCCC(C)C(=O)Nc1ccc(OC)cc1 (stereo unspecified)	0.27	3.2
N#CCC(=O)N(c1nccs1)C1CCCCC1	.	3.8
O=C(Cn1cncn1)N/N=C/c1ccccn1	.	0.9
Cc1cccc(OCc2nnc(SCC(N)=O)o2)c1	0.66	-1.7
Brc1cc2c(cc1CSc1nnc(-c3c[nH]c4ccccc34)o1)OCO2	.	0.7
COc1ccc(Nc2ncc(C#N)c(N)n2)c(OC)c1	.	1.3
Cc1c(Cl)cccc1NC(=S)N(Cc1ccco1)C(C)c1ccccn1 (stereo unspecified)	-0.092	0.3
Cc1ccc(S(=O)(=O)NCCC(=O)N2CCOCCOCCOCC2)cc1	.	2.6
Cc1ccc(C(=O)N/C(N)=N/c2nc3ccccc3o2)cc1	.	2.3
C[C@@H]1CN(c2c(F)c(N)c3c(=O)c(C(=O)O)cn(C4CC4)c3c2F)C[C@H](C)N1	-0.48	.
OCCNc1ncnc2ccc(Br)cc12	0.43	1.2
CCN=c1scc(-c2ccc(C)cc2)n1/N=C(\C)c1ccc(C)o1	.	-5.3
COc1cc(NC(C)=O)c(C(=O)c2nccc3cc(OC)c(OC)cc23)cc1OC	2.2	-1.6
N#Cc1c(Cl)cccc1-n1ccnc1	-0.056	1.9
CN1/C(=C\C(=O)CSc2nncs2)C(C)(C)c2ccccc21	.	1.1
Cc1cccc(C)c1NC(=O)CN1c2ccccc2CC1C (stereo unspecified)	.	-1.2
CC(C)NC(=O)CSc1nc(-c2ccccc2)cc(=O)[nH]1	0.41	2.1
c1cc2cn[nH]c2cc1NC1CCCCCC1	2.5	1.2
COc1cc2c(cc1OC)C(C)N(C(=O)c1ccco1)CC2 (stereo unspecified)	-0.45	6.1
Cc1ccccc1NC(=S)Nc1ccccc1C(=O)Nc1ccc(F)cc1	.	-1.4
CCn1c(SCC(=O)Nc2ccc3[nH]c(=O)[nH]c3c2)nnc1-c1cccs1	.	-3.0
Cc1nc2sc(C(=O)NC3CCC(C)CC3)c(C)c2c(=O)[nH]1 (stereo unspecified)	.	-1.6
CCCCn1c(C(O)c2ccccc2)nc2ccccc21 (stereo unspecified)	-0.71	-1.0
CCc1cccc(NC(=O)Cn2c(C(=O)OC)cc3oc4ccccc4c32)c1	-1.1	0.9
CC(C)(C)NC(=O)c1cccc2ccccc12	1.9	-2.9
CCOC(=O)CN1CC23C=CC(O2)C(C(=O)Nc2cccc(F)c2)C3C1=O (stereo unspecified)	0.53	1.3
CC1=NN(c2nc3ccccc3s2)C(=O)C1	.	6.2
CCCc1noc2c1/C(=N\O)CC(CC(C)SCC)C2 (stereo unspecified)	-0.99	1.7
C/C(=N\NC(=O)c1ccc(Cl)cc1)c1ccc(-n2ccnc2)cc1	.	0.9
O=C(O)c1cccn2c(=O)c3ccccc3nc12	0.58	1.1
O=C(Nc1ccc(N2CCCC2)cc1)c1ccccc1Cl	0.35	1.1
Cn1c(=O)[nH]c(=O)c2[nH]c(N(CCO)CCO)nc21	-0.17	-0.5
CN(c1ccc(O)cc1)c1nc(S(=O)(=O)c2ccccc2)c(Cl)s1	.	0.4
N#Cc1ccc(C(=O)N2CCCSC2=NCc2ccccc2)cc1	.	1.0
COc1ccc(-c2onc(C)c2C)cc1S(=O)(=O)NCC1CCN(Cc2ccc(F)cc2)CC1	.	1.3
CCc1ccc(/C=C2/C(=O)N(c3ccc(C)c(C)c3)C(=S)N2C)s1	.	0.7
CC(Sc1nc2ncccc2o1)C(=O)N1CCCc2ccccc21 (stereo unspecified)	0.49	-0.8
Cn1ccc(N2C(=O)c3ccccc3C2=O)n1	0.012	-0.4
CCc1ccc2c(c1)=C(c1sc(Nc3cccc(Cl)c3C)nc1O)C(=O)N=2	.	1.6
COCCNc1nc(SC)nc(-c2ccccc2)c1C#N	-0.67	-2.4
Oc1c(Cl)cc(Cl)cc1/C=N/c1ccnn1-c1ccccc1	.	4.3
NC(=O)CCSc1n[nH]c(=S)s1	.	0.4
O=C1CCCCCN1Cc1n[nH]c(=S)o1	.	0.7
CC(C)(C)c1ccc2c(c1)OCC(C(=O)O)O2 (stereo unspecified)	-0.37	-1.3
O=C1CCSc2c1cccc2C(=O)NCCCN1CCOCC1	0.033	-1.2
CC1=CCC2C(=O)N(c3cc(C)on3)C(=O)C2C1 (stereo unspecified)	0.073	1.3
O=C(C1CCCCC1)N1N=C2/C(=C/c3ccco3)CCCC2C1c1ccco1 (stereo unspecified)	.	-0.5
CN(C(=O)CN1CCOCC1)n1cnc2ccsc2c1=O	0.19	0.0
c1ccc(-n2nnnc2NCC(c2cccs2)c2c[nH]c3ccccc23)cc1 (stereo unspecified)	.	0.4
CNC(=O)NCc1c(F)cccc1Cl	0.61	1.1
CCOC(=O)c1sc(NC(C)=O)nc1-c1ccccc1	-0.37	0.9
N#C/C(=N\Nc1ccccc1C(F)(F)F)C(=N)N1CCOCC1	-0.081	4.8
Cn1c(=O)c2c(nc3oc(C(C)(C)C)cn32)n(C)c1=O	2.6	-1.6
COc1ccc(CN2CCCN(Cc3ccc(OC)cc3)C2c2ccc(OC)cc2)cc1	0.16	-2.6
O=C1c2ccccc2-c2c1cnc1c(-c3ccccc3)cnn21	.	1.2
O=C(c1c2c(nc3ccccc13)C(=O)N(C1CCCCC1)C2)N1CCCCCC1	-0.58	-1.7
O=C(Cn1ccc2ccccc2c1=O)NCCC(=O)N1CCCC1	-0.45	-0.1
Cc1ccccc1Nc1nnc(-c2ccc(C(=O)NCCO)cc2)c2ccccc12	.	0.4
CCOc1ccc(CCNC(=O)C2CCC(=O)N2C2CCCCC2)cc1OCC (stereo unspecified)	0.3	0.6
Next section.
SMILES	LANA-nucl inh	Ab BasE inh
COC(=O)C1CC2=CC(=O)CCC2(C)C2C(O)CC3(C)C(CCC34CCC(=O)O4)C12 (stereo unspecified)	-0.95	2.2
CSC1=N/C(=C\c2ccccc2)C(=O)S1	-0.56	1.5
CCn1c(SCc2cccc3ccccc23)nnc1-c1ccco1	.	-3.0
Cc1cc(-n2c(C)cc(C(=O)CSc3ncnc4ccccc34)c2C)no1	.	-1.6
Cc1cc(N2C(=O)CS/C2=C(/C#N)C(=O)NC2CCCCC2)ccc1Cl	.	1.5
Cc1cc(C(C)(C)C)c(O)c(C(C)(C)C)c1	0.23	.
CCc1ccc(NC(=O)C(C)Nc2ccc3c(c2)OCCO3)cc1 (stereo unspecified)	.	0.3
CCc1nc(N=C(N)N)nc2ccc(C)cc12	0.67	-0.8
CCn1nnc2c(N3c4ccccc4CC3C)ncnc21 (stereo unspecified)	0.14	1.1
O=c1oc2ccccc2c(O)c1Sc1ccccc1	.	2.5
Cc1cccc(NC(=S)N(C2CCCCC2)C(C)c2ccco2)c1 (stereo unspecified)	-0.8	0.2
COc1ccc(C(=O)Oc2ccc3oc(=O)sc3c2)cc1	0.1	-1.5

Records listed above that bear a hit mark in LANA-nucl inh.
Compound	LANA-nucl inh
COc1ccccc1C1C=C(c2cccnc2)Nc2nc3ccccc3n21 (stereo unspecified)	-4.8*

Returning to the listing, repeating the 6 entries before the break.
SMILES	LANA-nucl inh	Ab BasE inh
CCc1ccc(NC(=O)C(C)Nc2ccc3c(c2)OCCO3)cc1 (stereo unspecified)	.	0.3
CCc1nc(N=C(N)N)nc2ccc(C)cc12	0.67	-0.8
CCn1nnc2c(N3c4ccccc4CC3C)ncnc21 (stereo unspecified)	0.14	1.1
O=c1oc2ccccc2c(O)c1Sc1ccccc1	.	2.5
Cc1cccc(NC(=S)N(C2CCCCC2)C(C)c2ccco2)c1 (stereo unspecified)	-0.8	0.2
COc1ccc(C(=O)Oc2ccc3oc(=O)sc3c2)cc1	0.1	-1.5
COC(=O)CSc1nc(N2CCOCC2)c2c(c1C#N)CC(C)(C)OC2	0.064	1.3
O=C(COc1ccc(Cl)cc1)Nc1ccc2oc(-c3c(F)c(F)c(F)c(F)c3F)nc2c1	1.7	-3.4
O=C(O)CSc1nccc2ccccc12	0.81	-0.3
CC(C)(C)c1ccc(C(=O)Nc2cccc(C(F)(F)F)c2)cc1	.	1.6
CCn1cc(C(=O)NN)c(=O)c2cc(F)c(NN)cc21	.	-0.1
CC1=NN(c2cc(Cl)cc(Cl)c2)C(=O)CC1	.	1.2
Oc1[nH]c(=S)sc1N=Nc1ccc(F)cc1F	2.4	-6.4
Cc1noc(C)c1CC(=O)N1CCN(S(=O)(=O)c2ccc3c(c2)OCCCO3)CC1	.	2.1
COc1ccccc1N(C)S(=O)(=O)c1ccc(C(=O)Oc2ccc(-c3nnco3)cc2)cc1	.	0.6
O=C(Sc1ccccn1)N1c2ccccc2Sc2ccccc21	.	-0.5
CC(=O)N1CC=C2C(C#N)=C(N)C(C#N)(C#N)C(C)C2C1 (stereo unspecified)	-1.6	2.4
COc1ccc(CCNC(=O)CSc2nnc(C)s2)cc1OC	-0.011	-2.7
CCN1CCC(NCc2ccccc2C(F)(F)F)CC1	-0.22	-0.9
O=C(CN1CCCCCC1=O)OCc1cc(Cl)cc2c1OCOC2	.	1.1
O=C(NN=C1C2CC3CC(C2)CC1C3)c1cccs1	0.066	5.7
